GIV-Gai inh: inhibitors of GIV GBA-motif binding to rat Galpha-i3 | P08753 | Galpha-i3/FITC-GIV peptide fluorescence polarization, 90 min; stronger effect = lower value; scaled: aluminum fluoride 0%, vehicle 100% | percent of control (FP), % (concentration not given with the values) | 210,000 tested, 0.42% active | AID 1224905;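 active means replicate mean at 85% of control or lower, very high polarization wells dropped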;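 further: wells of about 15 µL received 100 nL stock; the first replicate is given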
Target sequence (P08753 whole entry, looked up): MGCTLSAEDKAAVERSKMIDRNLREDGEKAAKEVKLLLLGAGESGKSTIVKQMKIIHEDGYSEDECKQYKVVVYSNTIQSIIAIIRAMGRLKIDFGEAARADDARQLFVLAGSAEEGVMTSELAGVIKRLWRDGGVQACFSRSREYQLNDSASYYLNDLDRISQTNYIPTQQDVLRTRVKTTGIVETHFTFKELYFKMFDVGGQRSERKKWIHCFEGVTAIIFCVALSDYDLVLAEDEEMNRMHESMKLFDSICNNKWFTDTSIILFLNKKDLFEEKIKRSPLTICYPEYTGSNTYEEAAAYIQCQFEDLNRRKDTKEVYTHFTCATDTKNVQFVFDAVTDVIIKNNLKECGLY
HCMV NEC inh: cytomegalovirus nuclear egress complex inhibition. 190,000 tested, 0.15% active. HTRF UL50-UL53 interaction, normalized percent inhibition. AID 1918969. inhibition, % (no concentration beside the values);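 active means both replicates at 50% or more, plus weaker picks with an unusually low signal ratio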;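 further: stock transfer was 100 nL into about 20 µL; 0% = negative control wells and 100% = wells with untagged competitor protein; inactives centre near -12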
Sa growth 42C: S. aureus growth inhibition. relative growth, % (test concentration not listed). S. aureus RN4220 growth, OD600, 20 h, 42 °C; stronger effect = lower value. 170,000 tested, 0.53% active. AID 720641;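 active means growth at 42 °C up to 50% and 20 or more points under that at 30 °C, or under 10% at both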;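 further: 300 nL library stock went into each well; scaled to the means of positive and negative controls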
Sa growth 42C second temp: also measured in Sa growth 42C; calls as there; relative growth, %; measured here: growth at 30 °C;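 optical density after 20 h as mean of two plates; 100% = untreated growth and lower means inhibition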
* = called active by the depositor; / = no result given; & = joins results of further samples. Outcome played no part in choosing rows; 0.82% or so of the library scored in one or more.

SMILES	GIV-Gai inh	HCMV NEC inh	Sa growth 42C	Sa growth 42C second temp
CCC(C)NC(=O)c1cc(-c2cccs2)nc2c1c(C)nn2-c1ccccc1 (stereo not drawn)	/	9	88	91
O=S(=O)(c1ccc(Cl)cc1)N1CCCC(c2nc(-c3ccc4c(c3)OCO4)no2)C1 (stereo not drawn)	106	8	/	/
CCOC(=O)c1cc2c(=O)n3ccccc3nc2n(Cc2ccco2)c1=NC(=O)c1ccc(C(C)(C)C)cc1	102	-18	95	82
COc1cc(Br)c(/C=C2\C(=O)N(c3cccc(Cl)c3)N=C2C)cc1OC	104	-6	/	/
CC1(C)CC(NCCCN2CCCCC2)=CC(=[N+]2CCCCC2)C1	/	13	66	94
CCCCc1ccc(NC(=O)Nc2ccc(N3CCCCC3)cc2)cc1	104	-22	91	87
Cc1c(CN2CCN(c3cccc(C(F)(F)F)c3)CC2)c(=O)n(-c2ccccc2)n1C	/	-8	96	88
COc1ccc(C2=NN(C(=O)c3ccc(Cl)cc3)C(c3cccc([N+](=O)[O-])c3)C2)cc1 (stereo not drawn)	102	-37	/	/
O=S(=O)(NCCS(=O)(=O)N1CCN(c2ccccc2)CC1)c1ccc(Br)cc1	103	/	94	89
COc1ccccc1CNC(=O)c1cnc2c(-c3ccccc3)c(C)nn2c1C	104	/	91	81
CN(C)c1ccc(-c2oncc2C#N)cc1	/	-26	85	94
COc1ccc(C(C)NC(=O)CCc2ccccc2)cc1 (stereo not drawn)	105	9	100	89
CCSc1ncc2c(=O)n(CC(=O)Nc3ccccc3OC)cnc2n1	103	1	/	/
NC(N)=N/N=C1\CCc2ccccc21	109	8	102	92
Cc1cccn2cc(-c3ccccc3)nc12	107	-29	88	79
CCc1ccccc1NS(=O)(=O)c1ccc2nc(-c3ccccc3)[nH]c2c1	101	-24	99	96
O=C(NCCc1cccs1)c1ccc(Cn2c(SCc3ccccc3)nc3cccnc32)cc1	100	/	127	112
OC(Cn1cccn1)c1ccccc1 (stereo not drawn)	95	-10	99	85
CC1=C(C(=O)Nc2ccccn2)C(c2ccc(OCc3ccccc3)cc2)n2ncnc2N1 (stereo not drawn)	110	-16	/	/
COC(=O)CNS(=O)(=O)c1ccc(C)cc1	107	4	100	99
CN(C)C(=O)CSc1nnc2n1C(C)(C)Cc1ccccc1-2	102	-5	109	76
CC(C)CC(=O)Oc1cccc(-n2cnnn2)c1	100	6	/	/
O=S1(=O)CCC(NNC(=S)Nc2ccccc2)C1 (stereo not drawn)	94	8	82	114
COC(=O)c1cccc(NC(=O)COC(=O)CSc2nc(C)cc(C)n2)c1	/	-7	127	84
CCc1cccc(-n2c(=O)c3cccnc3n2CC(=O)NC2CCCC2)c1	103	-10	/	/
Continued:
SMILES	GIV-Gai inh	HCMV NEC inh	Sa growth 42C	Sa growth 42C second temp
Cc1ccc(Cl)cc1Nc1nc2ccccc2c2nncn12	109	-5	120	84
CCOC(=O)N1CCN(Cc2nc3cc(NC(=O)C(C)C)ccc3n2C(C)C)CC1	97	3	93	87
Cc1c(C)n(C(=O)CSc2ncn[nH]2)c2ccccc12	/	-37	119	87
Cc1cc(C)c(S(=O)(=O)N2CCN(Cc3ccc4c(c3)OCO4)CC2)c(C)c1	100	/	108	89
CCN(C(=O)COc1cc(=O)n(CC)c2ccccc12)c1cccc(Cl)c1	100	-20	106	86
COC(=O)c1c(C)nn(C)c1-c1snnc1C	103	1	99	101
CC(C)(C)NC(=O)c1ccccc1SCc1ccc(F)cc1	/	3	98	98
Cc1nc(-c2ccc(N3CCN(C(=O)Nc4ccc(C)c(Cl)c4)CC3)cc2)no1	106	-28	/	/
O=C(c1cc2ccccc2oc1=O)N1CCOCC1	/	-31	115	86
COC(=O)CSc1nnc(-c2sc3ncccc3c2N)n1C1CC1	100	-84	/	/
COc1ccc(NC(=O)N2CCN(S(=O)(=O)c3ccc4c(ccn4C)c3)CC2)c(OC)c1	101	/	87	90
COCCn1c(SCc2ccccc2F)nc2c([nH]c3ccccc32)c1=O	101	/	120	83
Oc1ccccc1C=Nc1ccc(OC(F)(F)F)cc1	99	-15	109	85
COc1c(C)cnc2c1c(=O)n(CC(=O)N1CCC(C)CC1)c(=O)n2C	101	-8	/	/
CC12CC3CC(C)(C1)CC(CO)(C3)C2	/	-4	110	91
COc1ccc(Cl)cc1S(=O)(=O)Nc1c(-n2cnnc2)nn(C)c1C	105	4	/	/
CCOc1ccc(Nc2c(S(=O)(=O)c3ccc(C)cc3)cnc3ccc(F)cc23)cc1	100	-17	107	89
COc1cccc(-c2nc3ccccc3s2)c1	101	-8	30	70
O=S(=O)(c1ccc(N=Cc2ccncc2)cc1)c1ccc(N=Cc2ccncc2)cc1	/	-7	82	49
CCOC(=O)C(=O)NCC(c1cccnc1)N1CCN(c2ccccc2)CC1 (stereo not drawn)	106	-19	86	86
CCN(C(=O)c1cc2c(-c3ccc(Cl)cc3)nn(C)c2s1)c1cccc(Cl)c1	97	/	93	87
COc1ccc(-c2cc(C(F)(F)F)n3nc(C(=O)N4CCSCC4)c(Cl)c3n2)cc1OC	103	-36	/	/
CC(C)CCNC(=O)Oc1ccccc1	104	-20	77	87
Cc1ccc(-c2cc(Nc3c(C)n(C)n(-c4ccccc4)c3=O)nc(C)n2)cc1	101	4	/	/
Cc1nc2ccc(S(=O)(=O)CCC(=O)Nc3ccc(F)cc3C)cc2s1	109	/	107	83
New compounds follow
SMILES	GIV-Gai inh	HCMV NEC inh	Sa growth 42C	Sa growth 42C second temp
O=C(COc1ccccc1C(=O)O)Nc1ccc(Br)cc1	/	-14	89	90
O=C1c2ccccc2C(=O)N1CC(=O)N1CCc2ccccc21	102	0	91	90
O=C1/C(=C/c2ccc(O)cc2)N=C(c2ccccc2)N1c1nc2cc(Cl)c(F)cc2s1	/	0	101	66
CCOC(=O)c1c(NC(=O)C2c3ccccc3Oc3ccccc32)sc2c1CCC(CC)C2 (stereo not drawn)	105	-9	95	92
O=C(/C=C/c1ccc(Br)o1)N(Cc1nc2ccccc2c(=O)[nH]1)CC1CCCO1 (stereo not drawn)	/	-8	97	98
CN1CCN(c2ccc(CNC(=O)c3ccc4c(c3)OCCO4)cc2)CC1	100	-9	102	94
CC(=O)c1nn(-c2ccc(OC(F)(F)F)cc2)nc1Nc1ccccc1	98	-35	110	88
O=S(=O)(Nc1ccccc1N1CCOCC1)c1ccc(-c2ccccn2)s1	106	-32	121	92
Clc1ccccc1-c1csc(NCC2CCCO2)n1 (stereo not drawn)	111	-5	102	95
Cc1ccc(C)c(S(=O)(=O)c2cnc(SCC(=O)Nc3ccc(F)cc3F)[nH]c2=O)c1	103	-24	116	88
CC(C)CNc1ncnc2c1oc1ccccc12	/	-17	70	55
COc1ccc(CCNC(=O)c2ccc(Cl)cc2NC(=O)C2=C(C)OCCS2)cc1OC	99	/	93	91
O=C(C1CCN(S(=O)(=O)c2cc(C(F)(F)F)ccc2Cl)CC1)N1CCN(C(=O)C2CCCO2)CC1 (stereo not drawn)	/	11	112	94
CCCN(CCC)C(=O)c1c2c(nc3ccccc13)C(=O)N(C1CCCCC1)C2	97	/	74	86
N=c1sc2ccccc2n1CC(O)c1ccc(Cl)c(Cl)c1 (stereo not drawn)	/	-31	108	74
O=C(Cc1ccc(F)cc1)Nc1cccc(-c2nc3cccnc3s2)c1	102	-14	103	94
Cc1ccc(NC(=O)N2Cc3cccn3-c3ccccc32)cc1Cl	100	-30	/	/
COCCN(Cc1cc2cc(C)c(C)cc2nc1Cl)C(C)=O	98	-19	104	100
c1ccc2c(c1)CCN(CCCNc1nc3ccccc3n3cnnc13)C2	101	-4	98	81
c1csc(-c2nnc(N3CCCCCC3)c3ccccc23)c1	99	/	40	40
CC(C)(C)OC(=O)COc1ccc2oc(=O)sc2c1	106	-23	70	75
CC1(C)C(=O)N(CC(=O)Nc2ccc(Cl)cc2)c2ccccc21	109	/	102	84
S=C(NCC1CCCO1)N/N=C/c1cccnc1 (stereo not drawn)	103	-72	94	81
O=C(CNC(=O)c1ccccc1F)NCc1ccco1	98	/	123	91
O=C1CN(c2ccc(S(=O)(=O)N3CCCC3)cn2)CCN1	/	-17	97	93

Sorted by heavy-atom count (largest number first): 3 of the compounds above
SMILES	GIV-Gai inh	HCMV NEC inh	Sa growth 42C	Sa growth 42C second temp
COc1ccc(CCNC(=O)c2ccc(Cl)cc2NC(=O)C2=C(C)OCCS2)cc1OC	99	/	93	91
O=C(/C=C/c1ccc(Br)o1)N(Cc1nc2ccccc2c(=O)[nH]1)CC1CCCO1 (stereo not drawn)	/	-8	97	98
O=S(=O)(Nc1ccccc1N1CCOCC1)c1ccc(-c2ccccn2)s1	106	-32	121	92

Molecules above that contain an NH in an aromatic ring:
SMILES	GIV-Gai inh	HCMV NEC inh	Sa growth 42C	Sa growth 42C second temp
CCc1ccccc1NS(=O)(=O)c1ccc2nc(-c3ccccc3)[nH]c2c1	101	-24	99	96
Cc1c(C)n(C(=O)CSc2ncn[nH]2)c2ccccc12	/	-37	119	87
COCCn1c(SCc2ccccc2F)nc2c([nH]c3ccccc32)c1=O	101	/	120	83
O=C(/C=C/c1ccc(Br)o1)N(Cc1nc2ccccc2c(=O)[nH]1)CC1CCCO1 (stereo not drawn)	/	-8	97	98
Cc1ccc(C)c(S(=O)(=O)c2cnc(SCC(=O)Nc3ccc(F)cc3F)[nH]c2=O)c1	103	-24	116	88

Continued.
SMILES	GIV-Gai inh	HCMV NEC inh	Sa growth 42C	Sa growth 42C second temp
CSC(=NC1CCCCC1)NC#N	/	3	103	80
Cc1cnc(C(=O)OCc2c(C)cc(C(C)(C)C)cc2C)cn1	/	-16	110	97
CCOc1nc(-c2ccc(C)cc2)ccc1-c1noc(-c2ccccc2F)n1	113	-16	87	91
O=C(CCS(=O)(=O)c1cc(Br)cc2c1N(C(=O)C1CC1)CC2)N1CCN(c2ccccc2)CC1	100	-1	100	97
Clc1ccccc1-c1nnc(COc2ccccc2)o1	98	4	104	86
CCC(=O)N1c2ccccc2CC1C(=O)NCc1cccc(OC)c1OC (stereo not drawn)	95	/	94	89
CC(C)n1c(=O)oc2cc(NS(C)(=O)=O)ccc21	98	-16	/	/
CC(C)NC(=O)Cn1ncc2c(=O)oc3ccccc3c21	98	3	88	85
COc1cccc(Cn2c(=O)n3nc(CCn4nc(C)cc4C)nc3c3ccccc32)c1	104&102	-21&-18	86	73
COc1ccc2cc3c(N)nn(C(=O)c4ccncc4)c3nc2c1	101&97	-65	90	90
O=C(NCCC1=CCCCC1)C1CCC(CNS(=O)(=O)c2ccccc2)CC1 (stereo not drawn)	103	/	88	79
Cc1ccc(S(=O)(=O)Nc2ccccc2N)cc1	/	-12	103	92
CCOC(=O)/C=C(\C)Nc1nc2ccccc2s1	104	-14	104	86
CCNC(=O)c1c(NC(=O)Cc2coc3cc(C)ccc23)sc2c1CCCC2	110	0	119	80
NNC(=O)c1n[nH]c2c1CCC2	103	7	100	105
CC(=O)N1C(=O)NC(=O)C1(C)C	102	-17	116	94
Cc1ccccc1OC(=O)Cn1c(=O)sc2ccccc21	/	2	102	92
Cc1oc2ncn3nc(C(C)Oc4cccc5ccccc45)nc3c2c1C (stereo not drawn)	109	2	108	101
CN1c2cc(Cl)ccc2-c2nc(SCC(=O)Nc3cc(F)ccc3F)ncc2S1(=O)=O	110	78*	/	/
CCOC(=O)c1ccc(NC(=O)Cn2c(=O)n(-c3ccc(C)cc3)c(=O)c3c2cnn3C)cc1	99&110	-1&10	99	85
Cc1csc(C(C#N)C(=O)CSc2nc3ccccc3o2)n1 (stereo not drawn)	/	-6	83	37
CC12CCC(=O)N1C(C(=O)Nc1nccs1)CS2 (stereo not drawn)	/	-23	94	90
COc1ccc(Cl)cc1NCc1nnc2n1CCCCC2	103	/	100	100
CCCCCCCc1c(O)nc(SCCN2CCOCC2)n(-c2ccccc2)c1=O	103	-9	93	99
CCOC(=O)c1ccc(NC(=O)CSc2nc3c([nH]c4ccccc43)c(=O)n2C)cc1	104	/	117	69

Next section, starting with the last two of the part before.
SMILES	GIV-Gai inh	HCMV NEC inh	Sa growth 42C	Sa growth 42C second temp
CCCCCCCc1c(O)nc(SCCN2CCOCC2)n(-c2ccccc2)c1=O	103	-9	93	99
CCOC(=O)c1ccc(NC(=O)CSc2nc3c([nH]c4ccccc43)c(=O)n2C)cc1	104	/	117	69
Cc1nnc(SCC(=O)NCCN2CCOCC2)c2nn(-c3ccccc3)c(C)c12	127	-25	99	98
COc1ccc(NC(=O)CSCc2cc(=O)c3cc(C)ccc3[nH]2)cc1	103	/	98	90
CCOCC(=O)N1CCc2ccccc21	/	17	104	106
CCC(=O)Nc1ccc(S(=O)(=O)N(C)CCc2noc(C3CCCCC3)n2)cc1	104	-2	/	/
CC1CCCN(C(=O)Cc2cn(Cc3cccc(Cl)c3)c3ccccc23)C1 (stereo not drawn)	111	/	79	52
CN(C)CCCN1C(=O)C(O)=C(C(=O)c2cccs2)C1c1ccco1 (stereo not drawn)	/	-13	77	89
CSc1cc(=O)c2ccccc2s1	107	-6	111	93
COCCNC(=O)c1ccc2c(c1)N(Cc1cccc(Cl)c1)C(=O)c1ccccc1S2(=O)=O	99	/	102	80
CN1C(=O)C(=Cc2ccc(-c3cccc(Cl)c3)o2)C(=O)N(C)C1=S	/	10	74	82
CC1CCN(S(=O)(=O)c2ccc(-c3cc(C(F)(F)F)on3)o2)CC1	104	-16	/	/
c1ccc(-c2cc(Nc3ccc(N4CCCC4)cc3)ncn2)cc1	105	-5	/	/
CCCn1nnc(NCc2ccc(-c3ccc(Br)cc3Cl)o2)n1	100	-13	/	/
Cc1ccc(CNC(=O)c2ccc(N3CCSc4ncccc43)s2)o1	107	-52	102	84

Source: PubChem BioAssay
